MbtI inh = inhibitors of Mycobacterium tuberculosis siderophore enzyme MbtI. purified MbtI enzyme, fluorescence intensity read-out. inhibition, %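 (about 17 µg/mL by stock and volumes)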. hit rate 0.89% among 100,000. P9WFX0;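 active = above 50% in both replicates, above 80% if mildly self-fluorescent; inactive = the rest, strongly fluorescent compounds included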;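 note: 0% = mean of negative and 100% = mean of positive controls; one replicate is shown; some compounds called inactive have numbers as strong as hits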
Target sequence (P9WFX0 whole entry, looked up): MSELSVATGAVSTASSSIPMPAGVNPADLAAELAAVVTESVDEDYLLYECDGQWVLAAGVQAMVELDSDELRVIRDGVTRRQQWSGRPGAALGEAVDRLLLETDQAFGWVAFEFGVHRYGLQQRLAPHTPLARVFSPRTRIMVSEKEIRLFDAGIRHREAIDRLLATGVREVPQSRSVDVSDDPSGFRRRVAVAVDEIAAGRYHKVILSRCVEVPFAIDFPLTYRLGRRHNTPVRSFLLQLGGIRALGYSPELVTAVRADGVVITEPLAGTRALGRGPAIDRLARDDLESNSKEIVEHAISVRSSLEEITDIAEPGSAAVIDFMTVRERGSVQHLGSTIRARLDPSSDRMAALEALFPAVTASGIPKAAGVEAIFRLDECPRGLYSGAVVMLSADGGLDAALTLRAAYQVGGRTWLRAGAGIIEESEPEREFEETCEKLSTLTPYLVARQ
MenB inh = Mtb MenB enzyme inhibition | P9WNP5 | inhibition, %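 (about 12 µg/mL by stock and volumes)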 | AID 540299 | MenB enzyme assay, absorbance read-out; some hits fall short of the stated cut | hit rate 0.43% among 100,000;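 active = mean of two replicates above 30%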;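 note: 0% = no compound and 100% = wells with inactive enzyme; the first replicate is given; strong numbers were not always called active; inactives centre near -10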
Polio RdRp inh = poliovirus RNA polymerase inhibition | poliovirus polymerase elongation, fluorescence polarization; hits give low values | AID 588519 | hit rate 0.66% among 150,000 | P03300 | % elongation, % (compound at 16.7 µg/mL); in the data active = % elongation below about 90%; note: some results filed as inactive read as strong as hits
Target sequence (P03300 1749-2209 limits assumed): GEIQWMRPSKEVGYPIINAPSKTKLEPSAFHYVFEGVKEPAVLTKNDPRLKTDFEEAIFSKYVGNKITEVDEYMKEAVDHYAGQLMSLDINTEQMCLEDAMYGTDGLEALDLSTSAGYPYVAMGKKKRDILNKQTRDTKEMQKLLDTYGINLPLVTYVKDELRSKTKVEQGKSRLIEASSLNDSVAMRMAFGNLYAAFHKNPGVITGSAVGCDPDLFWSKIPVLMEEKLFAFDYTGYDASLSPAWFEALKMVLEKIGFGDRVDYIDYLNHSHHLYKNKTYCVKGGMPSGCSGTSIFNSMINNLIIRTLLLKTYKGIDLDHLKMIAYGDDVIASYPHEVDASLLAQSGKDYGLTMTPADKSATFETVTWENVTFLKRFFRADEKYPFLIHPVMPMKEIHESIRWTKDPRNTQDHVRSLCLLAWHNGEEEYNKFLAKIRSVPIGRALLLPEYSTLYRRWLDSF
Polio RdRp inh intensity = also measured in Polio RdRp inh; calls as there; % elongation; measured here: total intensity read-out; formula for this scale not given here;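 total fluorescence in place of polarization; lower means less elongation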
Starred values were filed as active, the others as inactive; i = inactive; x = no result given.

Sample of the layout, 21 compounds:
canonical_smiles,MbtI inh,MenB inh,Polio RdRp inh,Polio RdRp inh intensity
COc1ccc(-n2c3c(cc(C(N)=O)c2=O)C(=O)CC(C)(C)C3)cc1,-12,-8,104,108
COC(=O)c1ccc(S(=O)(=O)N2CCCN(Cc3ccc(F)cc3)CC2)n1C,0,-12,100,100
CC1Sc2cc(S(=O)(=O)C(C)CC(=O)N3CCc4ccccc43)ccc2NC1=O (stereo not given),-4,-14,103,101
CCN(CC)c1ccc2cc(C(=O)Nc3ccccc3)c(=N)oc2c1,-5,1,106,122
O=C(CC1C(=O)NCCN1C(=O)Nc1ccccc1)Nc1ccc(F)cc1 (stereo not given),-8,1,102,103
OCCn1c(Cc2ccccc2)nc2ccccc21,i,x,101,104
CCCN1CCN(C(=O)c2ccccc2CSc2ncn[nH]2)CC1,-9,-5,99,100
Cc1cc(CSc2nc(C)cc(C)n2)c2ncccc2c1,-4,x,101,101
CSc1nnc(C)c(=O)n1COC(=O)c1ccccc1,16,-3,103,101
CCCN(Cc1nnc(-c2ccco2)o1)C(=O)c1ccc2c(c1)CC(c1ccccc1)OC2=O (stereo not given),79,-28,105,106
CCn1c(C)nc2cc(-c3nnc(Nc4ccccc4)o3)ccc21,-30,-21,98,101
CCCN(CCC)C(=O)c1c(NC(=O)c2ccco2)sc2c1CCC(C)C2 (stereo not given),x,-30,105,96
O=C(O)c1ccc2c(c1)CCC2,-1,12,101,104
CC1(C)CC2CC(C)(CN2C(=O)c2ccccc2)C1 (stereo not given),x,-7,105,110
O=C1c2ccccc2C(=O)c2c1oc1c3c(ccc21)OCN(CCCn1ccnc1)C3,8,-2,84*,71*
Cc1nonc1NC1(Nc2nonc2C)C(=O)c2ccccc2C1=O,x,-2,98,104
CC(C)c1nc(N2CCN(C(=S)NC3CCCCC3)CC2)c(C#N)c2c1CCCC2,3,-9,97,101
Cc1nc2c3ccccc3n(Cc3ccccc3)c2s1,18,-21,99,101
Cc1nc(SCCNCCO)c2c3c(sc2n1)CCC3,15,-6,103,105
Cc1nn(-c2ccccc2)c(N)c1Sc1c(F)c(F)c(F)c(F)c1F,-16,x,105,105
CC(C)C(Nc1ncnc2ccc(Br)cc12)C(=O)O (stereo not given),1,2,105,103

The whole of this part (from the top)
canonical_smiles,MbtI inh,MenB inh,Polio RdRp inh,Polio RdRp inh intensity
COc1ccc(-n2c3c(cc(C(N)=O)c2=O)C(=O)CC(C)(C)C3)cc1,-12,-8,104,108
COC(=O)c1ccc(S(=O)(=O)N2CCCN(Cc3ccc(F)cc3)CC2)n1C,0,-12,100,100
CC1Sc2cc(S(=O)(=O)C(C)CC(=O)N3CCc4ccccc43)ccc2NC1=O (stereo not given),-4,-14,103,101
CCN(CC)c1ccc2cc(C(=O)Nc3ccccc3)c(=N)oc2c1,-5,1,106,122
O=C(CC1C(=O)NCCN1C(=O)Nc1ccccc1)Nc1ccc(F)cc1 (stereo not given),-8,1,102,103
OCCn1c(Cc2ccccc2)nc2ccccc21,i,x,101,104
CCCN1CCN(C(=O)c2ccccc2CSc2ncn[nH]2)CC1,-9,-5,99,100
Cc1cc(CSc2nc(C)cc(C)n2)c2ncccc2c1,-4,x,101,101
CSc1nnc(C)c(=O)n1COC(=O)c1ccccc1,16,-3,103,101
CCCN(Cc1nnc(-c2ccco2)o1)C(=O)c1ccc2c(c1)CC(c1ccccc1)OC2=O (stereo not given),79,-28,105,106
CCn1c(C)nc2cc(-c3nnc(Nc4ccccc4)o3)ccc21,-30,-21,98,101
CCCN(CCC)C(=O)c1c(NC(=O)c2ccco2)sc2c1CCC(C)C2 (stereo not given),x,-30,105,96
O=C(O)c1ccc2c(c1)CCC2,-1,12,101,104
CC1(C)CC2CC(C)(CN2C(=O)c2ccccc2)C1 (stereo not given),x,-7,105,110
O=C1c2ccccc2C(=O)c2c1oc1c3c(ccc21)OCN(CCCn1ccnc1)C3,8,-2,84*,71*

Some of the entries so far, field by field.
compound: COc1ccc(-n2c3c(cc(C(N)=O)c2=O)C(=O)CC(C)(C)C3)cc1
  MbtI inh: -12; MenB inh: -8; Polio RdRp inh: 104; Polio RdRp inh intensity: 108

compound: COC(=O)c1ccc(S(=O)(=O)N2CCCN(Cc3ccc(F)cc3)CC2)n1C
  MbtI inh: 0; MenB inh: -12; Polio RdRp inh: 100; Polio RdRp inh intensity: 100

compound: CC1Sc2cc(S(=O)(=O)C(C)CC(=O)N3CCc4ccccc43)ccc2NC1=O (stereo not given)
  MbtI inh: -4; MenB inh: -14; Polio RdRp inh: 103; Polio RdRp inh intensity: 101

The listing continues:
canonical_smiles,MbtI inh,MenB inh,Polio RdRp inh,Polio RdRp inh intensity
Cc1nonc1NC1(Nc2nonc2C)C(=O)c2ccccc2C1=O,x,-2,98,104
CC(C)c1nc(N2CCN(C(=S)NC3CCCCC3)CC2)c(C#N)c2c1CCCC2,3,-9,97,101
Cc1nc2c3ccccc3n(Cc3ccccc3)c2s1,18,-21,99,101
Cc1nc(SCCNCCO)c2c3c(sc2n1)CCC3,15,-6,103,105
Cc1nn(-c2ccccc2)c(N)c1Sc1c(F)c(F)c(F)c(F)c1F,-16,x,105,105
CC(C)C(Nc1ncnc2ccc(Br)cc12)C(=O)O (stereo not given),1,2,105,103
Cc1ccc(CNC(=O)c2cnc3ccccn3c2=O)cc1,105,6,101,102
O=C(Nc1ccc(NC(=O)C2CC23CCC3)cc1)C1CC12CCC2 (stereo not given),-2,-17,103,104
O=C(CN1C(=O)c2ccccc2S1(=O)=O)N1CCc2ccccc21,-1,x,100,100
COc1cc2c3nc4n(c(=O)c3n(CC(=O)NCc3ccco3)c2cc1OC)CCS4,8,-25,102,102
C=CCNC(=O)COc1nc(-c2cccs2)cc(C(F)(F)F)n1,98,3,102,101
O=C(CC1CCCCC1)Nc1ccc(F)cc1,-4,-2,103,103
CC(C)NC(=O)CSCc1c(Cl)cccc1Cl,9,-14,102,104
NS(=O)(=O)c1ccc(N=C2NC(=O)C(CC(=O)Nc3ccccc3)S2)cc1 (stereo not given),5,-26,101,104
Nn1c(Cc2ccccc2F)nnc1SCc1cc(=O)oc2cc(O)c(O)cc12,-6,-68,101,103

Other structures:
canonical_smiles,MbtI inh,MenB inh,Polio RdRp inh,Polio RdRp inh intensity
CC(=O)OC1CC(C(=O)O)N(S(=O)(=O)c2ccc(F)cc2)C1 (stereo not given),3,-20,98,94
O=C(O)COCC(=O)Nc1ccc(OC(F)F)cc1,-4,9,102,98
COc1ccc(F)cc1S(=O)(=O)Nc1ccc2c(c1)oc1ccc(S(=O)(=O)N3CCCC3)cc12,-8,-32,102,102
CN(CCOc1ccccc1)CC(=O)Nc1ccc(Br)cc1F,16,-16,100,105
CCCNCc1cccn1-c1nnc(N2CCCC2)s1,36,-8,102,103
CN(CC(=O)N1CCC(Cc2ccccc2)CC1)S(=O)(=O)c1cccs1,-9,-42,111,115
Cn1cccc1C=C1C(=O)c2ccccc2C1=O,19,-42,102,102
Clc1ccccc1N1CCN(C2=Cc3ccccc3CC2)CC1,-2,22,104,108
O=CNCc1ccc(F)cc1,-2,-21,100,93
CCc1nnc(NC(=O)c2ccc3c(c2)[nH]c(=O)c(=O)n3CC)s1,33,-8,100,101
CN(N)P(=O)(c1ccccc1)c1ccccc1,x,-14,105,98
O=C(O)C1C2C=CC(O2)C1C(=O)NCCc1cccc(Cl)c1 (stereo not given),2,-14,101,103
C=CCn1c(SCC(=O)c2ccc(CNC(C)=O)s2)nnc1C1CCCCC1,17,2,99,106
COC(=O)c1ccccc1NC(=O)c1noc2c1CCc1ccccc1-2,-12,-14,102,102
CCc1cc(N2CCN(C(C)=O)CC2)n2c(nc3ccccc32)c1C#N,-2,-40,121,136

(list continues)
canonical_smiles,MbtI inh,MenB inh,Polio RdRp inh,Polio RdRp inh intensity
Cn1ccsc1=NC(=O)Cc1coc2ccc3ccccc3c12,32,-3,x,x
CN(C)C(CNC(=S)Nc1ccccc1Cl)c1ccco1 (stereo not given),9,-13,105,112
CC(Sc1nc2cc(Cl)ccc2n1Cc1ccccc1)C(=O)NC(N)=O (stereo not given),-9,-6,104,110
NC(=O)C1CCCN(C(=S)NC2CCCCC2)C1 (stereo not given),-14,-11,97,97
Cc1nn(-c2ccccc2)c(C)c1N=Cc1c(O)ccc2ccccc12,x,-23,118,156
CC(Sc1nnc(CNC(=O)c2ccccc2F)n1C(C)C)C(=O)Nc1nccs1 (stereo not given),1,-20,103,101
O=C(CNc1ccc(S(=O)(=O)N2CCCC2)cc1)N1CCc2ccccc21,16,-9,102,104
O=C(Nc1cccc(C(F)(F)F)c1)NC1CC(=O)N(Cc2ccccc2)C1 (stereo not given),5,2,101,103
Oc1ccc(Br)cc1C=Nc1cccc2nsnc12,13,-27,95,93
C=CCn1c(=S)[nH]c2sc3c(c2c1=O)CCCC3,x,-24,111,118
O=C1CC(c2ccccc2)Oc2ccc(Cl)cc21 (stereo not given),6,11,101,109
CC1=NN(c2ccccc2)C(=O)C12CC(C)=C(C)CS2 (stereo not given),33,-28,95,98
Cc1ccc2c(c1)c1nc3ccccc3nc1n2CC(C)C,-8,0,98,105
O=S1(=O)N=C(N2CCN(c3ccccc3)CC2)c2ccccc21,-11,7,101,101
Cn1c(C(=O)O)c(CNCc2ccccc2)c2ccccc21,-9,-16,103,103

(listing goes on)
canonical_smiles,MbtI inh,MenB inh,Polio RdRp inh,Polio RdRp inh intensity
CCn1c(=NC(=O)c2ccco2)sc2cc(Cl)ccc21,-2,-13,102,104
CCOC(=O)C1CCN(c2cc(Nc3ccccc3C(=O)O)c3c4c(onc24)-c2ccccc2C3=O)CC1,25,-20,71,199
COc1cccc(Nc2nnc(SCC(C)C)s2)c1,10,1,99,101
O=C(O)/C=C/c1c[nH]c(=O)[nH]c1=O,9,-12,99,106
CC(=O)Nc1ccc(C2Nc3ccccc3-c3nc4ccccc4n32)cc1 (stereo not given),103,-30,99,108
CCCN(Cc1nnc(-c2ccco2)o1)C(=O)c1ccccc1SCC(=O)Nc1ccc(F)cc1,69,-36,103,100
COC(=O)c1cc2c(N)c(C(=O)OC)sc2nc1C(OC)OC,-8,-23,104,102
Cc1ccc(-n2c(N)c(C#N)c3nc4ccccc4nc32)c(C)c1,-26,x,98,102
COc1ccc(OC)c(S(=O)(=O)N2CCC(C(=O)NCCC3=CCCCC3)CC2)c1,2,2,99,105
Cc1ccc(NC(=O)NNc2ccc(S(=O)(=O)N3CCCCC3)cn2)cc1,-13,12,101,98
CCOC(=O)CC1(C)NNC(=S)NN1,-8,-19,100,99
CN(C)C(=O)CN1CCC(N2CCCCC2)CC1,4,-44,102,103
CCOC(=O)c1c(NC(=S)NC(=O)c2c(I)cnn2C)sc2c1CCC(C)C2 (stereo not given),-14,-22,102,103
Clc1nsnc1N1CCOCC1,x,1,100,100
NC1CCN(C(=O)NC2CCCCC2)CC1,-3,24*,101,104

Further entries follow.
canonical_smiles,MbtI inh,MenB inh,Polio RdRp inh,Polio RdRp inh intensity
CC(C)(C)C(=O)O/N=C/c1ccc2c(c1)OCO2,-12,-4,100,98
COC(=O)C1CCN(C(=O)c2ccc(NC(C)=O)cc2)CC1,-7,-4,101,101
CCN1CCN(c2nc3ccccc3nc2C(C#N)C(=O)OCc2ccccc2)CC1 (stereo not given),-11,-15,x,x
CCNC1CC(N)C(OC2OC(CN)=CCC2N)C(O)C1OC1OCC(C)(O)C(NC)C1O (stereo not given),4,-5,99,99
O=C(COC(=O)c1ccc(CO)cc1)c1ccc(OC(F)F)cc1,3,4,98,98
Cc1nc(C(=O)Oc2ccc(Cl)cc2)sc1C(=O)Oc1ccc(Cl)cc1,55,-7,42*,57*
CCOc1ccc(C(=O)C(C)Sc2nc(C)cc(=O)[nH]2)cc1 (stereo not given),-3,-7,104,108
CN1CCCCC/C1=N/c1nc(-c2ccccc2)cs1,-9,1,104,109
CCN1C[C@]2(COC)CC[C@H](OC)C34C5CC6[C@H](O)C5[C@](O)(C[C@@H]6OC)C(CC32)C14 (stereo not given in full),-5,6,100,104
CCN(CC)CCNCc1ccc(-c2ccccc2)o1,11,33*,102,101
COC(=O)c1ccc(CC2(Cc3ccc(C(=O)OC)o3)C(=O)N(C)C(=O)N(C)C2=O)o1,-9,-19,101,101
Cn1cccc1/C=C/C(=O)OCC(=O)NC1(C#N)CCCCC1,0,2,98,103
COC(=O)C1=C(CNc2ccc(I)cc2)NC(=O)NC1c1cc(C)ccc1C (stereo not given),-3,-13,101,100
CC(C(=O)C12CC3CC(CC(C3)C1)C2)N1CCCC1 (stereo not given),-1,-10,106,102
CCOC(=O)CN1CSC2=C(C#N)C(c3ccc(Cl)cc3)CC(=O)N2C1 (stereo not given),77,-40,99,99

Screens from PubChem BioAssay.
